Sa helicase inh – S. aureus DNA helicase inhibition. purified S. aureus helicase, fluorescence unwinding assay; about half of the hits fall short of the stated cut. inhibition, %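 (tested at about 80 µM)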. 0.05% of 120,000 active. AID 485395;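 active means both duplicates at 50% or more, or one of them with a favoured structure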;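 further: 0% = mean of negative control wells and 100% = mean of positive control wells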
MgrA DNA FP – alters Staphylococcus aureus MgrA binding to DNA. fluorescence polarization. inhibition, %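 (about 10 µg/mL by stock and volumes)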. 0.13% of 84,000 active. AID 602314;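 active means above 50% in either of two replicates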;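 further: 0% = protein plus DNA without compound and 100% = DNA alone without protein; higher means less MgrA bound to DNA so lower polarization; one replicate is shown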
Numbers without * were called inactive. The list is partial. The share of hits here may be higher or lower than overall.

`COc1ccc(C(=O)Nc2ccc(S(=O)(=O)N3CCCCC3c3cccnc3)cc2)cc1OC` (configuration not stated) gave Sa helicase inh 6.
Screening Cc1cc(N/C=C2/CCCCC2=O)no1 returned Sa helicase inh -12.
Screening Cn1c(CCC(=O)OCC(=O)N2CCN(S(=O)(=O)c3ccc(Cl)cc3)CC2)nc(=O)c2ccccc21 returned Sa helicase inh 14.
`Nc1cc(=O)[nH]c(SCC(=O)Nc2ccc(S(=O)(=O)N3CCCC3)cc2)n1` gave Sa helicase inh 14.
For Nc1ccccc1C(=O)NC1CCCCNC1=O (configuration not stated) the results were MgrA DNA FP -1.4.
`COc1ccc(S(=O)(=O)/N=C2/NC(=O)/C(=C\c3cccnc3)S2)cc1` gave MgrA DNA FP 0.8.
For O=C1c2ccc(Br)cc2C(=O)N1C(c1ccccc1)c1ccccc1 the results were Sa helicase inh -14 and MgrA DNA FP 0.9.
`CN1/C(=C\C=N\NC(=O)CCN2CCCCC2)C(C)(C)c2ccccc21` gave Sa helicase inh -7.
`CCCN1C(=O)/C(=C/c2ccc(-c3ccc(Br)cc3)o2)NC1=S` gave Sa helicase inh -117.
`CCC(C)(CC(=O)O)CC(=O)Nc1ccc(NC(C)=O)cc1` (configuration not stated) gave Sa helicase inh 9.
For CCn1c2c(c3cc(C(=O)O)ccc31)CCCC2=O the results were Sa helicase inh 13.
Screening Cn1c(CSCC(=O)Nc2ccccc2)nnc1SCc1ccccc1 returned MgrA DNA FP -2.5.
Cc1onc(-c2ccccc2Cl)c1C(=O)c1ccccc1 was read as Sa helicase inh -2.
Screening O=C1c2ccccc2NC(c2ccc(O)cc2)N1c1ccccc1 (configuration not stated) returned Sa helicase inh 26.
COc1ccc2c(c1)CCc1c(C(=O)NC(C)c3ccccc3)noc1-2 (configuration not stated) was read as Sa helicase inh -15.
`N#CC1=C(C(N)=O)N=C(c2ccccc2)C(c2ccccc2)N1` (configuration not stated) gave MgrA DNA FP 0.5.
For CCOC(=O)c1c(C)[nH]c(C(=O)Nc2ccc(C)cc2)c1C the results were Sa helicase inh 5.
For CN(CCNc1ncnc2nc[nH]c12)Cc1ccccc1 the results were Sa helicase inh 11.
CC1=N/C(=C\c2ccc3ccccc3c2)C(=O)O1 was read as MgrA DNA FP -2.1.
For CCOC(=O)C1=C(C)N=c2s/c(=C\c3cc(OC)c(OC)c(OC)c3)c(=O)n2C1c1ccc2c(c1)OCO2 (configuration not stated) the results were MgrA DNA FP 1.0.
For CC1C(=O)CCN(CCO)C1C (configuration not stated) the results were Sa helicase inh 3.
CN(Cc1ccccc1)C(=O)CSc1nc2c(c(C(F)(F)F)n1)CCc1ccccc1-2 was read as Sa helicase inh 9 and MgrA DNA FP 1.8.
`CC(=O)Nc1ccc(NC(=O)COCC(=O)O)cc1` gave Sa helicase inh -25.
Screening Cc1csc(SCc2ccccc2C(=O)O)n1 returned Sa helicase inh -9.
`CC(=O)N(c1ccccc1)C(C)C1CC1` (configuration not stated) gave MgrA DNA FP -0.8.
CN(C)c1nc(N)c(C#N)c(CC#N)c1C#N was read as Sa helicase inh -38.
`CC(C)[C@H](NS(=O)(=O)c1ccc2c(c1)OCCO2)C(=O)Nc1ccccc1` gave Sa helicase inh -8.
`CNC(=O)c1c(-c2ccccc2)oc2ccc(O)cc12` gave Sa helicase inh -5.
COc1cccc(C(c2nnnn2CCC(C)C)N2CCN(c3cccc(C)c3C)CC2)c1OC (configuration not stated) was read as Sa helicase inh -7 and MgrA DNA FP -3.6.
COc1ccc(C(=O)Nc2nc(-c3ccncc3)cs2)cc1 was read as Sa helicase inh -14.
`CSc1ncc(C#N)c(N)n1` gave MgrA DNA FP 1.4.
Screening Cc1ccn2cc(C(C)(C)C)nc2c1 returned Sa helicase inh 21.
`CC1CCCCN1C(=O)/C=C/c1ccccc1` (configuration not stated) gave Sa helicase inh 5 and MgrA DNA FP 5.1.
CC(C)NS(=O)(=O)c1ccc(OCC(=O)N(C)Cc2ccccc2)cc1 was read as Sa helicase inh -6 and MgrA DNA FP 0.4.
For O=C(OCc1ccc2c(c1)OCO2)c1cccc(S(=O)(=O)N2CCCC2)c1 the results were Sa helicase inh 6.
Screening CS(=O)(=O)NCC(c1cccs1)S(=O)(=O)c1ccccc1 (configuration not stated) returned Sa helicase inh 4.
CN(C)C(=O)c1ccccc1NC(=O)c1ccco1 was read as Sa helicase inh 11 and MgrA DNA FP -0.2.
Screening O=C(CNS(=O)(=O)c1ccc(Br)s1)NCc1ccccc1 returned Sa helicase inh 15 and MgrA DNA FP 0.0.
CSC1=C(C#N)C(=O)NC(c2cccc3ccccc23)S1 (configuration not stated) was read as MgrA DNA FP -0.2.
Screening O=C(O)c1ccccc1C(=O)n1ccnc1-c1ccccc1 returned Sa helicase inh 3 and MgrA DNA FP -0.3.

Four successive entries already listed, quoted:
`COc1ccc(C(=O)Nc2ccc(S(=O)(=O)N3CCCCC3c3cccnc3)cc2)cc1OC` (configuration not stated) gave Sa helicase inh 6.
Screening Cc1cc(N/C=C2/CCCCC2=O)no1 returned Sa helicase inh -12.
Screening Cn1c(CCC(=O)OCC(=O)N2CCN(S(=O)(=O)c3ccc(Cl)cc3)CC2)nc(=O)c2ccccc21 returned Sa helicase inh 14.
`Nc1cc(=O)[nH]c(SCC(=O)Nc2ccc(S(=O)(=O)N3CCCC3)cc2)n1` gave Sa helicase inh 14.

Quoted at random: 3 entries already listed
Cc1onc(-c2ccccc2Cl)c1C(=O)c1ccccc1 was read as Sa helicase inh -2.
For CCn1c2c(c3cc(C(=O)O)ccc31)CCCC2=O the results were Sa helicase inh 13.
Screening Cc1csc(SCc2ccccc2C(=O)O)n1 returned Sa helicase inh -9.

Continued:
For COC(=O)c1ccccc1NC(=O)CSc1nc2c(c(=O)n(C)c(=O)n2C)n1C the results were MgrA DNA FP 1.0.
Screening COc1ccc2cc(CNC3CCCCC3)c(=O)[nH]c2c1 returned Sa helicase inh 9 and MgrA DNA FP -1.1.
Screening O=[N+]([O-])c1cccnc1N/N=C/c1ccc(O)cc1 returned MgrA DNA FP -2.1.
`CCOC(=O)N1CCC(NC2C3CC4CC(C3)CC2C4)CC1` (configuration not stated) gave Sa helicase inh 12 and MgrA DNA FP -1.8.
O=C(CSc1nnc(-c2c[nH]c3ccccc23)o1)NCC1CN(Cc2ccccc2)CCO1 (configuration not stated) was read as Sa helicase inh -14.
CCn1c(-c2nonc2N)nc2ccccc21 was read as Sa helicase inh 4 and MgrA DNA FP -1.1.
O=c1c(=O)n2c(nn1Cc1ccc(F)cc1)sc1ccccc12 was read as MgrA DNA FP -0.2.
Screening Cc1ccc(NC(=O)COC(=O)C2(CC(=O)NC(C)C)CCCC2)cc1C returned Sa helicase inh 4.
Screening COc1ccc(C(=O)[C@@H]2[C@@H](c3ccccc3F)C(C#N)(C#N)[C@H]3C=Cc4ccccc4N23)cc1 returned Sa helicase inh -33 and MgrA DNA FP 6.8.
COc1ccccc1N1CCN(CC(=O)Nc2ccc3[nH]c(=O)[nH]c3c2)CC1 was read as Sa helicase inh -2.
CCn1c(=O)c2cc(C(=O)NC3CCCC3)sc2c2ccccc21 was read as Sa helicase inh 19 and MgrA DNA FP 5.1.
Screening O=C(Oc1cc(S(=O)(=O)c2ccccc2)ccc1[N+](=O)[O-])c1ccc(Cl)c(Cl)c1 returned MgrA DNA FP -1.1.
CC(=O)Nc1cc(C2CC2)nn1-c1ccccc1 was read as MgrA DNA FP -1.9.
For C=CCN(CC=C)S(=O)(=O)Cc1ccccc1 the results were Sa helicase inh -6 and MgrA DNA FP 0.2.
`COc1ccccc1N1CCN(c2nc(Nc3ccc(C)cc3)c3cnn(C)c3n2)CC1` gave Sa helicase inh 7 and MgrA DNA FP 0.0.
For C=CCn1c(C)c(/C=C/C2=CCN(C)CC2)c2ccccc21 the results were Sa helicase inh -254 and MgrA DNA FP -3.9.
For CCc1ccc(NC(=O)C2CCN(S(=O)(=O)c3c(C)[nH]c(=O)[nH]c3=O)CC2)cc1 the results were Sa helicase inh 7 and MgrA DNA FP 0.6.
`C=CCn1c(NC(=O)/C=C/c2ccccc2)c(C#N)c2nc3ccccc3nc21` gave Sa helicase inh -12.
`CCCCNC(N)=S` gave Sa helicase inh 13.
For OC1CCCCC1N1CCNCC1 (configuration not stated) the results were Sa helicase inh 3 and MgrA DNA FP -0.8.

Gathered by group, those above with a furan ring, fused or not (3)
`CCCN1C(=O)/C(=C/c2ccc(-c3ccc(Br)cc3)o2)NC1=S` gave Sa helicase inh -117.
`CNC(=O)c1c(-c2ccccc2)oc2ccc(O)cc12` gave Sa helicase inh -5.
CN(C)C(=O)c1ccccc1NC(=O)c1ccco1 was read as Sa helicase inh 11 and MgrA DNA FP -0.2.

Grouped by structure: the entries above with bromine
For O=C1c2ccc(Br)cc2C(=O)N1C(c1ccccc1)c1ccccc1 the results were Sa helicase inh -14 and MgrA DNA FP 0.9.
`CCCN1C(=O)/C(=C/c2ccc(-c3ccc(Br)cc3)o2)NC1=S` gave Sa helicase inh -117.
Screening O=C(CNS(=O)(=O)c1ccc(Br)s1)NCc1ccccc1 returned Sa helicase inh 15 and MgrA DNA FP 0.0.

The results go on:
Screening O=C1c2ccccc2-c2cc(=O)[nH]c3cccc1c23 returned Sa helicase inh -36.
`O=C(Nn1cnc2ccccc2c1=O)c1cccc(Cl)c1` gave Sa helicase inh -8.
Cc1ccc(NC(=O)CCN2C(=O)c3ccccc3S2(=O)=O)cc1C was read as Sa helicase inh -3 and MgrA DNA FP -0.4.
Screening CN(C)C(=O)COC(=O)c1ccc2c(c1)OCO2 returned Sa helicase inh -13.
For O=C(O)c1coc(COCC(F)(F)F)c1 the results were Sa helicase inh 10 and MgrA DNA FP 12.
`CC(NCCOc1ccccc1F)C(=O)Nc1ccc(S(N)(=O)=O)cc1` (configuration not stated) gave Sa helicase inh 7.
O=C(/C=C/Nc1cccc(C(F)(F)F)c1)c1ccco1 was read as Sa helicase inh 6 and MgrA DNA FP 0.1.
Screening Cc1sc2ncnc(OCC(N)=O)c2c1C returned Sa helicase inh -4.
Screening CN1CCN(CC(=O)N2CCc3ccccc32)CC1 returned MgrA DNA FP -1.7.
O=C(O)c1ccccc1-c1ccccc1C(=O)Nc1ccc(F)cc1 was read as MgrA DNA FP -3.2.
For O=C(NCCN1CCCc2ccccc21)Nc1ccc(Br)cc1F the results were Sa helicase inh 26.
CNC(=O)c1sc(NCC(C)C)nc1C was read as Sa helicase inh 3.
O=C1CCCN1c1ccc(C(F)(F)F)cc1 was read as MgrA DNA FP 0.4.
For COCC(C)n1c(-c2ccc3c(c2)NC(=O)CO3)csc1=Nc1ccc(OC(F)F)cc1 (configuration not stated) the results were Sa helicase inh -1.
Screening Cn1cnnc1SCCOc1ccc(Cl)cc1 returned Sa helicase inh 5 and MgrA DNA FP -0.6.
`Fc1cccc(CSc2c[nH]c3ccccc23)c1` gave Sa helicase inh -2.
Screening COc1cc(-c2nnc(SCc3nc4scc(-c5ccccc5)c4c(=O)[nH]3)o2)cc(OC)c1OC returned Sa helicase inh 8.
NC(=NC(=O)c1ccccc1)N1N=CCC1c1ccccc1 (configuration not stated) was read as Sa helicase inh 7 and MgrA DNA FP 1.6.
Screening NC(=O)c1cc2ccccc2o/c1=N\NC(=O)c1ccc(F)cc1 returned Sa helicase inh 3.
Screening O=C(CN1C(=O)c2ccccc2S1(=O)=O)c1ccc(O)c(O)c1 returned MgrA DNA FP 0.5.
`O=C(NCCc1ccsc1)c1ccc2c(=O)n3c(nc2c1)CCCCC3` gave Sa helicase inh 14.
CC(C)(C)NC(=O)c1cccc(C(=O)NC(C)(C)C)c1 was read as Sa helicase inh -9 and MgrA DNA FP 1.8.
`CC(=O)Nc1ccc(N=Cc2ccccc2)cc1` gave Sa helicase inh 5.
Cc1[nH]c2ccccc2c1CCNC1=CC(=O)CC(C)(C)C1 was read as Sa helicase inh 2 and MgrA DNA FP -1.1.
CCC1Sc2ccccc2N(CC(=O)N(C(C)C)C(C)C)C1=O (configuration not stated) was read as Sa helicase inh -3 and MgrA DNA FP -3.8.
For CNc1nc(-c2ccc3c(c2)CCN3S(=O)(=O)c2ccccc2)cs1 the results were Sa helicase inh -17 and MgrA DNA FP 2.5.
O=C(Cc1ccc(S(=O)(=O)N2CCCCC2)s1)OCc1csc(Nc2ccccc2)n1 was read as Sa helicase inh -6.
`O=C(O)CN(c1cccc(C(F)(F)F)c1)S(=O)(=O)c1ccccc1` gave Sa helicase inh 4 and MgrA DNA FP -3.4.
Screening O=C(c1ccc(F)c(Cl)c1)c1ccc(F)c(Cl)c1 returned MgrA DNA FP -0.5.
O=[N+]([O-])c1ccc(-c2csnn2)cc1 was read as MgrA DNA FP -0.6.
Screening CC(C)C(=O)N(c1ccc2oc(=O)sc2c1)S(=O)(=O)c1cccs1 returned Sa helicase inh 25.
`COC(F)(C(=O)NCCc1cccn1C)C(F)(F)F` (configuration not stated) gave Sa helicase inh -4 and MgrA DNA FP 0.3.
Screening CCOC(=O)C(c1ccc(Cl)cc1)N1CCNCC1 (configuration not stated) returned Sa helicase inh 0.
CCN(Cc1nc2cc(OC)c(OC)cc2c(=O)[nH]1)Cc1cc(=O)oc2c(C)c(C)ccc12 was read as Sa helicase inh -11.
For Clc1ccc(C=Nc2ccc(-c3csnn3)cc2)cc1 the results were MgrA DNA FP 2.0.
For CCc1ccc(NC(=O)CNS(=O)(=O)c2ccc3nc(C)sc3c2)cc1 the results were Sa helicase inh 6 and MgrA DNA FP -0.2.
Screening COc1cc(NC(=O)c2ccc(Cl)cc2)c(C(=O)O)cc1OC returned MgrA DNA FP -0.5.
Cc1cc(C(=O)CSc2nncs2)c(C)n1-c1ccc(F)cc1 was read as Sa helicase inh 7.
Screening NCCSc1sc(=S)sc1SCCN returned Sa helicase inh 13.
